D2 ag = activates the human D2 dopamine receptor. 0.084% of 360,000 active. P14416. AID 624465. DiscoveRx PathHunter D2 beta-arrestin, luminescence, 90 min; 100% = 57 uM dopamine signal. activation, % (concentration not given with the values); in the data active = activation above about 40%; inconclusive = about 15% to 40%; inactive = below about 15%; also: compound concentration not given in the record; the text of the record calls up to 30% inactive
Target sequence (P14416 whole entry, looked up): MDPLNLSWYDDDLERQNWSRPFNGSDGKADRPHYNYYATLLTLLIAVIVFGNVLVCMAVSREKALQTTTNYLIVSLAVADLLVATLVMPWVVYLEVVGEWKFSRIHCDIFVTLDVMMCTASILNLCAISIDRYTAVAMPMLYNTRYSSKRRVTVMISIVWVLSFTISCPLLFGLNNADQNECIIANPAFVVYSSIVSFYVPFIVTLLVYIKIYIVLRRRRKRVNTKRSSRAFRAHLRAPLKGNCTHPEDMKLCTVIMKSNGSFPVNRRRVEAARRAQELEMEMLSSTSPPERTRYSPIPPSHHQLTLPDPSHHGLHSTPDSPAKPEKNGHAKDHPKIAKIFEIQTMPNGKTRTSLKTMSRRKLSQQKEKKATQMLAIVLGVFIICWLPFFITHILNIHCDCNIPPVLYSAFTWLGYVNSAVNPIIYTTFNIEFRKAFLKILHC
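Agonist mode: compounds alone added to overnight-plated D2 PathHunter cells for 90 min at 37 C, with 57 uM final dopamine (EC100) defining full response. Beta-arrestin recruitment detected by chemiluminescent reagent, read after 1 h at ambient temperature.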
gsp ag = agonists of gsp mutant (McCune-Albright syndrome) | 0.13% of 340,000 active | gsp mutant cells, cAMP HTRF, 30 min; control for the full effect not named in the record | Potency, µM (series often up to 76.9 µM), without a hit: at the top dose activation (cAMP increase), actives largely listed as activators; active = well fitted activation curve with a large enough effect; inconclusive = small, poorly fitted or top-dose-only effect, or another doubt; inactive = no such curve, though single readings can be large or run the other way; cell line not stated here;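 also: phosphodiesterase inhibitor Ro 20-1724 added with compounds to block cAMP breakdown; potency is read from the fitted curve at half-maximal effect; nearly all actives have a fitted effect of over 60% in size; about a fifth of the inactives were tested at one dose only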
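Cells stably selected in G418 were plated at 2000/well, grown 16-24 hr, then given compounds in DMSO with the PDE inhibitor […] (300 uM solution added) for 30 min at 37C; cAMP was read by HTRF.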
ClpP mod = qHTS Assay for Activators of ClpP; 1.9% of 340,000 active; purified B. subtilis ClpP, FRET peptide cleavage, 20 min; ATP-dependent Clp protease proteolytic subunit (Bacillus subtilis (strain 168)), P80244; Potency, µM (series often up to 57.5 µM), without a hit: at the highest dose activity change, negative = active; AID 651965, 2013; active = well fitted falling curve with a large enough effect; inconclusive = small, poorly fitted or top-dose-only effect; inactive = no such curve, though single readings can be large or run the other way; also: potency is read from the fitted curve at half-maximal effect; the source files actives as falling curves though it sought activators and does not explain the sign; nearly all actives have a fitted effect of over 65% in size; many hits overshoot -100%
Target sequence (P80244 whole entry, looked up): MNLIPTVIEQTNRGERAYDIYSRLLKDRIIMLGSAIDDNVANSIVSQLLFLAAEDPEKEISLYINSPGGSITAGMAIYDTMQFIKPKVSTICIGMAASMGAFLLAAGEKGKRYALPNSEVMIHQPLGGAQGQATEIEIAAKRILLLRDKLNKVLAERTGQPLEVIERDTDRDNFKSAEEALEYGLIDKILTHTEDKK
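Buffer: 100 mM Tris/HCl pH8, 100 mM KCl, 0.05% low protease BSA, 2.5% glycerol, 0.01% Tween-20. ClpP 10 microg/mL final; 20 min RT; delta FRET normalized to ADEP and DMSO controls.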
PINK1 modulator = PINK1 expression modulation; Potency, µM (series often up to 76.6 µM), inactives show at the top dose activation (PINK1 increase), hits mostly activators; PINK1 immunofluorescence, high-content cytometry, 24 h; 0.2% of 410,000 active; active = well fitted activation curve with a large enough effect; inconclusive = small, poorly fitted or top-dose-only effect; inactive = flat fitted curve, though single readings scatter; cell line not stated here;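 also: potency is read from the fitted curve at half-maximal effect; % of control where 0% means no effect; nearly all actives have a fitted effect of over 65% in size; a mitochondrial uncoupler was the plate control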
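PINK1 protein level read as immunofluorescence by microplate cytometer in a fixed, stained stable cell line after 24 h exposure to five compound concentrations, with CCCP as control.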
Sfp PPTase inh = Sfp phosphopantetheinyl transferase inhibition. Biochemical Sfp PPTase activity, qHTS. Potency, µM, inactives show max response, negative = inhibition, hits mostly inhibitors. 3.5% of 310,000 active. AID 1490. Q9F4F7; active = well fitted inhibition curve with a large enough effect; inconclusive = small, poorly fitted or top-dose-only effect, or another doubt; inactive = no such curve, though single readings can be large or run the other way;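 also: the enzyme is Sfp with the accession as filed and its product quenches rhodamine fluorescence; potency is read from the fitted curve at half-maximal effect; 0% = enzyme reaction without inhibitor and -100% = no enzyme wells; top concentration of the series not given in the record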
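Reaction rates are the 30-min fluorescence difference (ex 525, em 598 nm) in wells containing 15 nM Sfp, 5 uM rhodamine-CoA and 12.5 uM BHQ-2-YbbR at pH 7.6 with 10 mM MgCl2.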
gsp antagonist = gsp mutant antagonism; gsp-mutant cells, cAMP HTRF, 30 min; control for the full effect not named in the record; Potency, µM (series often up to 76.9 µM), for inactives: at the top dose activity change, negative = inhibition, hits mostly inhibitors; 0.4% of 340,000 active; active = falling curve of any shape with a large fitted effect; inconclusive = falling curve, mostly with a smaller effect; inactive = flat or rising curve; cell line not stated here;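 also: intracellular cAMP measured with PDE inhibitor Ro 20-1724 present during compound exposure; potency is read from the fitted curve at half-maximal effect; % is scaled to controls: 0 for no effect and ±100 for the full control effect; nearly all actives have a fitted effect of over 65% in size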
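G418-selected cells were plated in DMEM/10% FBS for 16-24 h at 37C, then treated with compounds plus the PDE inhibitor […] (300 uM solution added) for 30 min at 37C. Intracellular cAMP was measured by HTRF after 30 min lysis at room temperature.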
Menin MLL FP FL = menin-MLL binding inhibition, fluorescein peptide; Fluorescence polarization, fluorescein-MLL peptide displacement from menin; FP activity change, % at 61.4 µM; 290,000 tested, under 10 active; inconclusive = falling polarisation curve, or a change in total fluorescence; inactive = total fluorescence flat and polarisation flat or rising; no compound was filed as active; the % refers to the polarisation; negative = inhibition;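 also: % of control where 0% means no effect; inhibitors lower the polarisation; unlabelled MLL peptide was the positive control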
Numbers without * were called inactive; ? = inconclusive; . = not tested or not shown; & = joins results of further samples; [ ] = remark or other dose. No enrichment for hits; any-hit rate near 5.1%.

Every second line gives: ClpP mod, gsp antagonist, Sfp PPTase inh, Menin MLL FP FL, PINK1 modulator, gsp ag, D2 ag
> COc1cccc2sc(=NC(=O)CCS(=O)(=O)c3ccc(C)cc3)n(C)c12
 : 3.16µM*, -0.9%, ., ., 2.2%, -49.9%[inhibitor], -4.9
> O=C(Nc1cc(Cl)ccc1N1CCOCC1)c1ccc2c(c1)OCCO2
 : -0.4%, -15.7%, 2.5%, -3.9, -1.1%, ?, -4.4
> O=C(COc1ccc(OCc2ccccc2)cc1)NN=C1CCCC1
 : ., ., 5.6%, 1.1, 0.8%, 16.0%[15.4 µM], -3.9
> Cc1ccc2c(c1)-c1ncc(C(=O)c3cc(Br)ccc3O)cc1CO2
 : 4.0%, ., 6.7%, 0.5, 6.0%, ., .
> O=C1C2C3C=CC(CC3)C2C(=O)N1c1ccc(Br)cc1[N+](=O)[O-] (centres undefined)
 : ., 1.6%, 16.9%, -1.5, 3.5%, -10.3%, -3.2
> O=C(CN1CCN(c2nc(-c3ccc(Cl)cc3)cs2)CC1)NCc1ccco1
 : -4.7%, -4.0%, -4.8%, 3.1, 20.7%[38.3 µM], 22.8%, 0.2
> Cc1ccc(Sc2ccc(CN3CCCC3)cc2[N+](=O)[O-])cc1
 : -2.8%, 10.5%, -4.2%, -9.2, ?, -51.7%, 1.0
> Cc1cc(Br)cn2c(Cc3ccccc3)c(-c3ccc(C#N)cc3)nc12
 : -18.0%, ., ., ., 0.4%, ., -10.6
> C#CCOCCOCCOCCNc1nc(N2CCN(C(=O)Cn3cc(CCCN=C(N)N)nn3)CC2)nc(N2CCN(C(=O)[C@H](C(C)C)n3cc(CCO)nn3)CC2)n1
 : 0.1%, 8.0%, 10.8%, -1.8, 2.0%, ., -1.0
> C/C=C/C(=O)N1CC2(CC(c3cccc(NC(=O)/C(C)=C/C)c3)=NO2)C[C@H]1C(N)=O (some centres undefined)
 : -1.9%, 2.0%, 12.1%, 2.1, -0.5%, ., -3.3
> O=C(NC12CCC(O)C(SC1)/C2=N/O)c1ccccc1 (centres undefined)
 : -2.0%, 15.5%, 11.0%, -2.4, -0.6%, 2.6%, -0.2
> O=C(COC(=O)c1ccccc1-n1cnnn1)c1ccc(Br)cc1
 : 15.8µM*, -13.1%, ., ., -4.6%, -0.6%, 0.8
> Cc1cc(N2CCN(c3nc4ccccc4s3)CC2)n2ncnc2n1
 : -2.0%, ?, 5.7%, -0.6, 1.6%[38.3 µM], 21.3%, 3.7
> COc1ccc(NC(=O)C2CC(c3ccc(OC)c(OC)c3)=NO2)cc1OC (centres undefined)
 : -2.2%, -5.9%, -15.5%, 3.2, -2.5%[38.3 µM], -21.6%, 0.1
> O=C1Nc2cc(S(=O)(=O)N3CCCC3)ccc2N2CCCC12 (centres undefined)
 : -8.2%, 10.0%, -28.8%, ?, -2.6%, ?, -5.4
> Cc1ccccc1C(=O)NC1CCN(Cc2nnnn2C(C)(C)C)CC1
 : 1.1%, 5.6%, 11.9%, 1.1, -0.3%, ?, 5.7
> O=C(/C=C/c1ccco1)OCn1nnc2ccccc2c1=O
 : ., 14.6%, -72.3%, -0.2, 0.2%, -4.9%[15.4 µM], -0.6
> Cc1nnc(SCC(=O)N(Cc2ccccc2)C(C)C)n1-c1ccccc1
 : -0.3%, 1.0%, 3.8%, 2.5, 3.5%, 13.9%, -1.0
> COc1ccc(S(=O)(=O)N2CCN(S(=O)(=O)c3ccc4c(c3)OCCO4)CC2)cc1C
 : 3.98µM*, -7.9%, 3.8%, -2.4, -0.1%&0.1%, 1.8%[15.4 µM], 0.3
> COc1cc(C(=O)Nc2nccs2)c(Br)c(OC)c1OC
 : 1.4%, 2.9%, 7.6%, 3.8, 4.7%, 2.9%, -2.8
> Cc1ccc(N/C=C(\[N+](=O)[O-])S(=O)(=O)c2ccccc2)cc1
 : ., -0.4%, 23.7%, 3.8, 0.0%, 17.7%[15.4 µM], -15.2
> COc1cc(OC)c(C2C(C#N)=C(N)OC3=C2C(=O)CC(C)C3)cc1OC (centres undefined)
 : -0.2%, 1.0%, 9.7%, 1.5, 6.6%[38.3 µM], -36.1%[inhibitor], -0.8
> Cc1ccc(C)c(NC(=O)CN(C)C(=O)/C=C/c2ccco2)c1
 : ., ., -0.8%, -4.7, 0.9%, -0.1%[15.4 µM], -5.5
> Cc1c(NC(=O)c2ccc3c4c(cccc24)CC3)c(=O)n(-c2ccccc2)n1C
 : 1.0%, 4.5%, -4.7%, -3.7, -0.4%[38.3 µM], -5.5%, -0.7
> CC1(C)Cc2nc(-c3ccccc3)nc(SCC(O)CO)c2CO1 (centres undefined)
 : -1.7%, -14.9%, 11.0%, -0.6, 1.8%, 0.2%, -5.6
> Cc1ccn2c(=O)nc(SCC(=O)NCc3ccc4c(c3)OCO4)nc2c1
 : 0.4%, -5.4%, ., ., -1.0%, 4.4%[15.4 µM], -4.8
> O=c1c2ccccc2nnn1Cc1cccc2ccccc12
 : -1.4%, 0.5%, -6.6%, -0.1, 1.9%, ?, 3.3
> Cc1ccc(C)c(NC(=S)NCCc2ccc(S(N)(=O)=O)cc2)c1
 : -0.2%, 1.3%, ., ., 1.0%, 6.8%, -5.0
> CC1=NN(c2ccccc2)C(=O)/C1=C/c1ccc(-c2ccc(C)c(C(=O)O)c2)o1
 : ., -3.7%, ., ., 0.0%, -80.0%[inhibitor], 1.5
> CC(C)C1C(=O)N(Cc2cn(CCC3OCCCO3)nn2)CCS(=O)(=O)N1Cc1ccc(-c2ccncc2)cc1 (centres undefined)
 : -8.9%, ., ., ., 7.5%, ?, -11.1
> Cc1cc2cc(CCNC(=O)CC(C)(C)C)c(=O)[nH]c2cc1C
 : 3.9%, 6.9%, -14.8%, -0.2, 2.3%, -13.3%, -8.0
> O=C(CC1SC(N2CCOCC2)=NC1=O)Nc1ccccc1Cl (centres undefined)
 : 0.4%, 3.3%, ., ., 1.7%, 1.9%, -0.4
> Cn1c(N)c(C(=O)CSc2nc3ccccc3[nH]2)c(=O)n(C)c1=O
 : 1.2%, 16.0%, 12.4%, 3.0, 2.2%, ?, -7.8
> CC(=O)Nc1ccc(NC(=O)C(C)OC(=O)C2(c3ccc(Cl)cc3)CCCC2)cc1 (centres undefined)
 : 0.8%, -15.3%, 9.5%, 6.6, 2.4%, 27.1%, 3.7
> COc1ccc(/C=N/NS(=O)(=O)c2ccccc2)cc1OC(=O)c1ccc(C)cc1
 : 0.4%, -23.9%, -0.9%, -1.2, 5.2%, -14.7%, -13.4
> CN(C)S(=O)(=O)c1cccc(NC(=S)Nc2cc(Cl)cc(Cl)c2)c1
 : 3.3%, -14.5%, 50.1µM*, 1.2, ?, 0.4%, -2.6
> Cc1cc(=O)cc(C)n1-c1ccc(Cl)cc1
 : -1.7%, 11.0%, 14.0%, 1.3, 1.2%, 2.1%[15.4 µM], -3.6
> CCOC(=O)CCN(Cc1cccs1)S(=O)(=O)c1ccc(Cl)cc1
 : 1.1%, -9.9%, 13.5%, 0.5, 3.0%, -43.3%, -3.4
> O=[N+]([O-])c1cccc(/C=N/Nc2nc(NCc3ccccc3)nc(N3CCOCC3)n2)c1O
 : -4.8%, ?, -19.2%, 0.0, -0.7%, ?, -19.4
> COc1ccc2[nH]cc(C(=O)CN3CCCCC3)c2c1
 : -1.6%, 7.3%, 11.9%, 4.2, -0.9%, -24.3%, 0.2
> Cc1ccc2cc3cc(C(=O)N4CC(C)CC(C)C4)oc3nc2c1 (centres undefined)
 : -22.7%, -17.6%, -13.0%, -0.1, 5.4%, 22.1%, -4.0
> CCCCc1ccc(NS(=O)(=O)c2cccc(C(=O)N3CCCN(C)CC3)c2)cc1
 : -0.9%, -9.3%, ., ., 0.3%, -41.4%[inhibitor], -4.4
> CCCN(CCC)CC(O)CN1C(=O)N(CN2C(=O)N(CC(O)CN(CCC)CCC)C(=O)C2(C)C)C(C)(C)C1=O (centres undefined)
 : ., -4.4%, 9.2%, -0.4, -0.3%, 10.9%[15.4 µM], 1.3
> Cc1cccc(NC(=O)N2CCC(NC(=O)C3CCCCC3)CC2)c1
 : ., 2.9%, 2.0%, -0.3, 0.2%, -13.9%, -2.7
> Cc1ccc(NC(=O)c2ccc(Nc3ccccc3F)nc2)cc1
 : -7.8%, -3.0%, 9.2%, 2.0, 4.9%, 3.6%, -2.9
> CCCOc1c(Br)cc(C(=O)OCc2cc(=O)n3ccsc3n2)cc1OC
 : -1.1%, 5.8%, ., ., 4.8%, ?, -5.4
> O=C(NCc1ccco1)C1OCCc2ccccc21 (centres undefined)
 : 1.2%, 4.7%, -22.4%, 0.7, -0.5%, 19.9%, -0.9
> CCOc1ccc(NC(=O)CCc2nnc3ccc(N4CCC5(CC4)OCCO5)nn23)cc1
 : -3.3%, -6.7%, 16.5%, -1.1, -0.2%, ?, 1.8
> CCOC(=O)C1=C(COC(=O)COc2cccc(C)c2C)NC(=O)NC1C (centres undefined)
 : 0.9%, -3.7%, ., ., 3.5%, 4.5%, 1.2
> CCc1ccc(CN(C)C(=O)CCc2nnc(COc3ccccc3)o2)cc1
 : -0.5%, -6.2%, -0.5%, -0.4, -1.1%, -49.2%[inhibitor], -4.7

(cont.)
Every second line gives: ClpP mod, gsp antagonist, Sfp PPTase inh, Menin MLL FP FL, PINK1 modulator, gsp ag, D2 ag
> Cc1cccc(CSCc2ccc(C(=O)O)o2)c1
 : 1.3%, -7.5%, -4.4%, 10.9, -1.3%, 2.0%, -4.9
> Cc1ccc(C)n1-n1c(C)nc2scc(-c3cccs3)c2c1=O
 : 3.6%, -7.4%, -9.5%, 0.1, -0.4%, -10.2%, -3.3
> O=C(Nc1cccc(C(=O)Nc2cccc(C(F)(F)F)c2)c1)c1ccc(=O)[nH]c1
 : -0.8%, 6.7%, 10.7%, 4.9, 19.1%, -6.2%[15.4 µM], -1.3
> Cc1c(C(=O)NC(=S)Nc2ccc3c4c(cccc24)CC3)cccc1[N+](=O)[O-]
 : 4.8%, 2.0%, 14.0%, 0.9, ?, 10.2%, -3.5

Compound activity deposited in PubChem BioAssay by National Center for Advancing Translational Sciences (NCATS).
